KSHV LANA nucl: inhibitors of KSHV LANA-nucleosome binding, primary screen, biochemical, fluorescence polarization, FITC-LANA1-23, chicken nucleosomes. z-score (concentration not given with the values). AID 720717, 2013. FITC-LANA1-23 / chicken nucleosome fluorescence polarization; stronger effect = lower value. 51,000 tested, 0.3% active;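 active = both repeat wells score below -2 in polarization z-score versus plate sample wells, excluding overly bright wells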;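 also: 100 nL library stock added to about 30 µL; numbers are from one replicate; some results filed as inactive read as strong as hits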
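Material: Purified chicken nucleosomes with FITC-labelled LANA N-terminal peptide (1-23) | Reagent: 50 nM FITC-LANA1-23 probe | Medium: TEN-BT buffer, pH 7.5 | Times: 10–45 min incubation at room temperature | Detection: Fluorescence polarization | Replication: Duplicates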
BasE inh: BasE siderophore enzyme inhibitors, primary screen, biochemical, Acinetobacter baumannii ATCC 17978, fluorescence polarization; purified BasE, fluorescence polarization binding displacement; inhibition, % (no concentration beside the values); 84,000 tested, 0.1% active; AID 485350, 2010;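 active = both replicates above 25% with normal brightness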;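 also: 0% = negative plate control signal and 100% = positive plate control signal; stock transfer was 100 nL into about 30 µL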
Active calls of the source: *; · = not tested or not shown. An excerpt. The share of hits here may be higher or lower than overall.

SMILES	KSHV LANA nucl	BasE inh
COCCn1cnc2ccccc21	·	3.9
Oc1ccc(-c2nc3cc4ccccc4cc3nc2-c2ccccc2)cc1	·	1.0
CS(=O)(=O)CCNCc1ccc(-c2ccc3ncnc(Nc4ccc(OCc5cccc(F)c5)c(Cl)c4)c3c2)o1	-0.089	·
Cc1ccc2[nH]c(=O)c(CC3CC(c4ccccc4)=NN3C(=O)CCC(=O)O)cc2c1 (stereo not given)	2.1	-3.7
CCCCOc1ccc(C(=O)NOCC(=O)NC2CCCCC2)cc1OC	·	-1.1
CC1Cc2ccccc2N1CC(=O)Nc1ccc2c(c1)OCCCO2 (stereo not given)	·	-1.1
CCOC(=O)c1sc(N)c(C(=O)OCC)c1CSc1nc2ccccc2s1	·	1.2
CCC(=O)N(C/C=C/c1ccccc1)c1ccc2c(c1)OCCO2	·	-0.9
Cc1ccc(C2Nc3ccc(C(=O)c4ccccc4)cc3NC3=C2C(=O)CCC3)o1 (stereo not given)	0.33	-2.8
CC(=O)Nc1ccc(NC(=O)/C=C/c2ccccc2)cc1	·	2.7
CN(CC(=O)Nc1ccc(Cl)cc1)Cc1cc(=O)n2ccsc2n1	·	-4.8
O=C(OCC(=O)N1CCNC1=O)c1cc(-c2ccc(Cl)cc2)nc2ccccc12	·	0.4
N#Cc1ccc(NC2=NCCC2)cc1	·	1.0
CCCN(CCC)C(=O)CSc1nc2ncccc2o1	0.65	0.0
CCCNS(=O)(=O)c1ccc(CN2C(=O)c3cccnc3C2=O)cc1	-0.21	0.3
CCN1CCN(CCNC(=O)c2ccc(N3CCCc4ccccc43)s2)CC1	-0.65	3.6
CC(C)(O)C#CCN1CCCCC1	-0.35	1.7
CCCCn1nnnc1COC(=O)c1c(-c2c(F)cccc2Cl)noc1C	·	1.9
O=C(c1ccc(-n2ccc3ccccc32)s1)N1CCCCC1	0.97	0.8
CC(C)c1ccc(C(CC(=O)O)NC(=O)C2CCCCC2)cc1 (stereo not given)	0.76	·
O=C1CC2(Oc3ccccc3O2)C(=O)NN1	0.81	2.4
Cc1cccc(C)c1NC(=O)CN(C)C(=O)c1ccccc1OC(F)F	·	0.1
COc1ccc(-c2noc(CN3CCC(C(=O)N(C)c4cc(C)ccc4C)CC3)n2)cc1OC	·	-3.9
CCc1cccc(CC)c1NC(=S)Nc1ccc(C)cc1	·	0.9
FC(F)(F)c1cccc(NC(=S)NCCNc2nccc(C(F)(F)F)n2)c1	·	0.2
Cc1ccc2c(c1)CCCN2CC(=O)c1ccc2c(c1)OCCO2	0.53	-1.6
Cc1cc2c(cc1S(=O)(=O)NCCc1ccccc1)n(C)c(=O)c(=O)n2C	1.2	-0.2
COC(=O)Cn1nc(C)c2ccccc2c1=O	-0.15	0.1
CN1CCN(C(=O)CN(c2cccc(Br)c2)S(=O)(=O)c2ccccc2)CC1	1	-1.2
Cc1cc(-n2c(C)cc(CNCC3(N4CCOCC4)CCCCC3)c2C)no1	·	-2.1
COc1ccc(CNC(=O)C2CCN(S(=O)(=O)N3CCCCC3)CC2)cc1	-0.91	-0.2
Cc1nn(C)c(C)c1NC(=O)CNC(=O)Cc1cccc2ccccc12	·	2.5
NS(=O)(=O)c1ccc(Cl)c(Cl)c1	·	-5.8
CC(=O)SCCC(=O)N1CCn2c3c(c4cc(C)ccc42)CCCC31 (stereo not given)	0.094	1.9
O=C(CC1CC(=O)Oc2ccccc21)Nc1nccs1 (stereo not given)	0.19	-1.9
Cc1noc(C)c1CSc1nnc(-c2ccc(F)cc2)c2ccccc12	·	3.3
CN(C)c1nc(N)nc(CSc2ccccn2)n1	-0.14	2.7
CC(C)n1c(O)c(N=NC(=S)NC2CCCCC2)c2ccccc21	·	0.6
O=C1CC(c2ccccc2)CC(O)=C1C=NCCN1CCOCC1 (stereo not given)	·	3.6
CC(=O)Nc1ccc(N2C(=O)CSC2c2ccccc2)cc1 (stereo not given)	·	0.6
Cc1ccc2cccc(NC(=O)C(F)(F)F)c2n1	-0.71	0.9
CCCNC(=O)CCc1nnc2ccc(N(CC)CC)nn12	2.2	-0.2
Cc1cc(C(N)=O)c(C)n1-c1ccc(-c2nc3ccccc3[nH]2)cc1	·	-4.9
CC1CN(c2ncc(C(=O)OCC3CC3)c(C(F)(F)F)n2)CC(C)O1 (stereo not given)	·	1.7
CCOCCCN=C1SCC(CC)N1C(=O)c1ccc(C#N)cc1 (stereo not given)	·	-2.4
Cc1nn(CCC#N)c2c1C(c1ccc3c(c1)OCO3)C1=C(CC(C)(C)CC1=O)N2 (stereo not given)	·	-0.7
O=C(COc1ccccc1F)c1ccc(O)cc1O	-0.61	-0.5
COCC(=O)N1CCN(c2ccccn2)CC1	0.022	21
CC(C)(C)c1ccc(C(=O)NCC(=O)NCc2ccccn2)cc1	·	0.6
O=C(COc1ccc(Cl)cc1)NCCC12CC3CC(CC(C3)C1)C2	·	-0.8
COc1cc(/C=C/C(=O)N2CCC(C)CC2)ccc1OCc1c(C)noc1C	·	1.1
Nc1nnc(SCC(=O)N2c3ccccc3Sc3ccc(C(F)(F)F)cc32)s1	·	1.6
O=C(COC(=O)C1=NNC(=O)CC1)NCc1ccco1	·	-0.9
CCOC(=O)N1CCN(C(=O)CS(=O)Cc2nc(-c3cccc(C)c3)oc2C)CC1 (stereo not given)	-0.64	0.8
Cc1nn(CO)c(C)c1Sc1ccc(Br)cc1	·	1.1
Cc1cnc(C(=O)OCC(=O)N2CC(C)CC(C)C2)cn1 (stereo not given)	·	1.7
COc1ccccc1NC(=S)N(CCN(C)C)C(C)c1ccncc1 (stereo not given)	0.68	-0.2
Brc1ccc(Oc2ccc(Nc3nc4ccccc4o3)cc2)cc1	·	5.8
c1ccc(-c2nsc(N3CCOCC3)n2)cc1	·	1.2
CCOC(=O)CN1C(=O)C(C)(C)Oc2ccc(C(=O)NC(C)C)cc21	-0.21	0.3

Single values from the entries so far.
Entry of Cc1nn(CO)c(C)c1Sc1ccc(Br)cc1 under BasE inh: 1.1
Entry of COc1cc(/C=C/C(=O)N2CCC(C)CC2)ccc1OCc1c(C)noc1C under BasE inh: 1.1
Entry of O=C(COC(=O)C1=NNC(=O)CC1)NCc1ccco1 under BasE inh: -0.9
Entry of CC(C)(C)c1ccc(C(=O)NCC(=O)NCc2ccccn2)cc1 under BasE inh: 0.6

Following part:
SMILES	KSHV LANA nucl	BasE inh
Cc1cccc(C(=O)NCCCn2ccnc2)c1C	·	0.1
CC1(C)Cc2cccc(C(=O)Nc3cccc4c3CCCC4)c2O1	·	1.4
COc1ccccc1NS(=O)(=O)c1cccc(C(=O)NN=C2CCCC2)c1	·	0.0
CC(C)NC(=O)NC(c1ccccc1)c1ccccc1	·	0.3
COc1ccc(S(=O)(=O)Nc2ccccn2)cc1OC	1.1	0.6
COc1ccccc1NC(=O)Cc1ccccc1	0.2	1.3
CCOc1cc(/C=C2\NC(=S)N(C3CCCCC3)C2=O)ccc1O	2.7	-3.9
O=c1[nH]c(SC2Cc3ccccc3C2O)nc2c1cnn2-c1ccccc1 (stereo not given)	·	2.6
Cc1cc2c3cccn3ccn2c1	·	4.6
CN(Cc1ccccc1)Cn1c(CO)nc2ccccc21	·	-1.4
COC(=O)c1sccc1S(=O)(=O)N1c2ccccc2NC(=O)CC1C (stereo not given)	0.12	3.8
C=CCn1c2ccccc2c2nnc(SCC(=O)Nc3nnc(C(C)C)s3)nc21	-0.093	1.0
COc1ccccc1N1CCN(S(=O)(=O)c2ccc3c4c(cccc24)C(=O)N3)CC1	·	0.3
Cc1ccc(N=C2NC(=O)/C(=C\c3cn(C)c4ccccc34)S2)c(C)c1	0.59	-1.1
CN1CCC(OC(=O)c2ccco2)CC1	-0.18	2.9
CC1(C)Cc2c(ccc3ccccc23)CN1	-0.078	2.1
Nc1ccccc1S(=O)(=O)Nc1ccccc1	·	4.9
Cc1cc(=O)oc2cc(NC(=O)CC(CC(=O)O)c3ccccc3)ccc12 (stereo not given)	·	-0.3
CC(C)=CC(=O)Nc1nc2ccc(S(C)(=O)=O)cc2s1	0.6	-6.0
CCN(CC)C(=O)Oc1cc(C(F)(F)F)nc(-c2ccc(Cl)cc2)n1	0.013	·
CC(C)OC(=O)/C(C#N)=C/c1cn(C)c2ccccc12	-1.1	-0.1
Cc1ccc(OCCOCCOc2ccccc2/C=N\n2cnnc2)cc1	1.5	-4.0
CCn1c(SC)nnc1C1CCN(C(=O)NCc2ccccc2)CC1	-1.5	1.5
O=C(O)CCC(=O)N1CCCC1	-0.12	-1.4
O=C(O)c1ccc2c(c1)C(=O)N(NC(=O)c1ccc(O)cc1)C2=O	-0.22	6.3
CC1CC2(CCCCC2)Nc2ccccc21 (stereo not given)	-0.46	0.0
CCOC(=O)c1c(S(=O)(=O)NC2CCN(C(=O)OCC)CC2)c(C)n(C)c1C	1.9	-1.2
CCCNC(=O)N(C)c1ncnnc1NC	0.26	2.1
N#CCN(C(=O)CSc1nccn1-c1cccc(Cl)c1)c1ccccc1	·	-1.9
O=S(=O)(c1ccc2oc(=S)n(CN3CCOCC3)c2c1)N1CCOCC1	·	2.4
CN(C1CCCCC1)S(=O)(=O)N1CCCC(C(=O)N2CCC(C(N)=O)CC2)C1 (stereo not given)	0.4	4.3
CCc1cccc(C)c1N(C(=O)Cn1c(CN2CCOCC2)nc2ccccc21)C(C)COC (stereo not given)	0.51	0.0
O=c1c2c(n3nnnc3n1-c1ccccc1)-c1ccccc1CC21CCCC1	-1.2	0.1
Cc1sc2ncn(CC(=O)N3c4ccccc4CC3C)c(=O)c2c1C (stereo not given)	·	-6.5
Cc1nc2nc(NC(=O)C(C)Oc3ccccc3)nn2c(C)c1Cl (stereo not given)	0.76	1.3
N#C/C(=C\Nc1ccc(Cl)cc1)c1ccc(Cl)cc1	1	·
O=C(NCCc1c[nH]c2ccccc12)c1cccc(S(=O)(=O)N2CCCC2)c1	·	1.3
CCSc1nc(NC(C)=O)nn1C(C)=O	0.32	3.1
CN1/C(=C\C(=O)COC(=O)C2=NNC(=O)CC2)C(C)(C)c2ccccc21	·	-0.4
Cc1cc(C)c(C#N)c(SCC(O)CS(=O)c2ccc(C(C)(C)C)cc2)n1 (stereo not given)	0.028	0.8
O=C(O)c1cccc(NC(=O)C2CCCO2)c1 (stereo not given)	0.11	0.0
CCOC(=O)c1c(C)nsc1NC(=O)c1csc(C)c1C	0.41	-0.1
O=C1CCN(c2nc(-c3ccccc3)nc3ccccc23)CC1	·	0.9
CN(C)c1[nH]ncc1-c1ccccc1	0.55	·
O=C1/C(=C/c2ccc3c(c2)OCO3)CS(=O)(=O)c2ccccc21	·	-0.5
CCOC(=O)O[C@]1(C(=O)COC(=O)CC)CC[C@H]2[C@@H]3CCC4=CC(=O)C=C[C@]4(C)[C@H]3[C@@H](O)C[C@@]21C	1.8	-4.9
CC(NC(=O)C1CCN(S(=O)(=O)c2ccccc2)CC1)c1ccccc1 (stereo not given)	0.06	3.8
COc1cccc(C(=O)OCC(=O)N2CCCc3ccccc32)c1	·	-1.6

Taken from the results shown (two entries):
SMILES	KSHV LANA nucl	BasE inh
COCCn1cnc2ccccc21	·	3.9
Oc1ccc(-c2nc3cc4ccccc4cc3nc2-c2ccccc2)cc1	·	1.0

Remaining list, next part:
SMILES	KSHV LANA nucl	BasE inh
O=C1NC(=O)C2(CCSc3ccc(F)cc32)N1 (stereo not given)	·	-3.1
CCOc1ccc(-n2nnc(C(=O)NCc3cc(OC)ccc3OC)c2C)cc1	0.2	-0.3
O=C1NC2(CCCC2)C(=O)N1CN1CCC(Cc2ccccc2)CC1	·	-0.4
Nc1cc(=O)nc2ccccn12	·	1.3
Cc1ccc(C)c(C(=O)NC2CCCCC2)c1	-1.1	-0.8
Cc1ccc(S(=O)(=O)N2CCN(C(=O)C3CCCN3C(=O)OC(C)(C)C)CC2)c(C)c1 (stereo not given)	·	-1.2
C=CCn1c(=N)n(CC(O)c2ccc(C)cc2)c2ccccc21 (stereo not given)	-0.38	-1.0
COc1ccc(Br)cc1CO	·	-1.5
Nc1ccc2c3c(cccc13)CC2	·	-4.0
O=C(NCCC1=CCCCC1)NCc1noc2ccccc12	-1.3	-0.2
C=CCn1c(N)cc(=O)nc1SCC(=O)Nc1ccccn1	0.92	-3.4
Cc1cccn2c(=O)c(/C=N/NC(=O)c3ccncc3)c(N3CCCC3)nc12	·	2.3
CC(C)(C)c1ccc(OCCCn2ccnc2)cc1	1.6	-5.8

In the list so far, 13 have an aryl thioether with sulfur outside any ring.
SMILES	KSHV LANA nucl	BasE inh
CCOC(=O)c1sc(N)c(C(=O)OCC)c1CSc1nc2ccccc2s1	·	1.2
CCCN(CCC)C(=O)CSc1nc2ncccc2o1	0.65	0.0
Cc1noc(C)c1CSc1nnc(-c2ccc(F)cc2)c2ccccc12	·	3.3
CN(C)c1nc(N)nc(CSc2ccccn2)n1	-0.14	2.7
Nc1nnc(SCC(=O)N2c3ccccc3Sc3ccc(C(F)(F)F)cc32)s1	·	1.6
Cc1nn(CO)c(C)c1Sc1ccc(Br)cc1	·	1.1
O=c1[nH]c(SC2Cc3ccccc3C2O)nc2c1cnn2-c1ccccc1 (stereo not given)	·	2.6
C=CCn1c2ccccc2c2nnc(SCC(=O)Nc3nnc(C(C)C)s3)nc21	-0.093	1.0
CCn1c(SC)nnc1C1CCN(C(=O)NCc2ccccc2)CC1	-1.5	1.5
N#CCN(C(=O)CSc1nccn1-c1cccc(Cl)c1)c1ccccc1	·	-1.9
CCSc1nc(NC(C)=O)nn1C(C)=O	0.32	3.1
Cc1cc(C)c(C#N)c(SCC(O)CS(=O)c2ccc(C(C)(C)C)cc2)n1 (stereo not given)	0.028	0.8
C=CCn1c(N)cc(=O)nc1SCC(=O)Nc1ccccn1	0.92	-3.4

Compound activity from PubChem BioAssay.
